Assay outcomes: PubChem BioAssay, PCMD
Biofilm kill mix = mixture kills Candida albicans biofilm cells; actives 0.02% (n = 120,000); C. albicans biofilm persisters + clotrimazole, fluorescence viability; primary screen in compound mixtures of four per well; inhibition, % at 7.6 µM;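 active = inhibition above 30.3% in the primary screen of four-compound pools, then above 30% when the compound was retested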;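 also: compounds exposed to preformed 24 h biofilms for 48 h; the number belongs to the whole pool; some results filed as inactive read as strong as hits; inactives centre near 12; 0% = biofilm with clotrimazole alone and 100% = kill control; retested singly at about 60 µM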
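Incubation: 24 h biofilm formation, then 48 h compound exposure, 37 °C | Material: C. albicans biofilms | Buffer or medium: RPMI/MOPS medium, pH 7.0 | Measured by: 2-h Alamar Blue fluorescence, 535/590 nm excitation/emission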
* marks the source's active call; other numbers are inactive results. An excerpt; the hit share may differ from the screen's.

Molecule | Biofilm kill mix
O=C(NCCCl)Nc1ccc(Cl)c([N+](=O)[O-])c1 | 10
CCCS(=O)(=O)NCc1cn2cccc(C)c2n1 | 8
O=C(O)c1cccc(-c2ccc(/C=N/Nc3ccc([N+](=O)[O-])cc3)o2)c1 | 14
COC(=O)c1ccc2nc(C)cc(Nc3ccc(N(C)C)cc3)c2c1 | 15
CCc1ccc(-c2nc(CSCC(=O)NCc3ccco3)c(C)o2)cc1 | 15
Cc1cccc(C)c1NC(=O)COC(=O)c1cc(-c2cccnc2)nc2ccccc12 | 0
Cc1cc2nc(CSc3ccc(Cl)cc3)cc(=O)n2[nH]1 | 10
CC1N=C(N)C(c2nc3ccccc3n2C)=C1O (stereo unspecified) | 6
O=C(N/N=C/c1sc(N2CCOCC2)nc1-c1ccccc1)c1cccc(S(=O)(=O)N2CCCC2)c1 | 8
Cc1ccc(S(=O)(=O)NN=C2C3CC4CC(C3)CC2C4)cc1[N+](=O)[O-] | 11
COc1ccc(OC)c(NC(=O)C2C(C(=O)O)C3(Cl)C(Cl)=C(Cl)C2(Cl)C3(Cl)Cl)c1 (stereo unspecified) | 27
CCc1nnc(NC(=O)CSc2nnc(-c3ccc(S(=O)(=O)N4CCCC4)cc3)n2CC)s1 | 9
O=S(=O)(c1ccc(NC(=S)NCc2ccco2)cc1)N1CCCC1 | 12
CCOc1ccc(/C(O)=C2/C(=O)C(=O)N(c3ncccn3)C2c2ccccc2)cc1 (stereo unspecified) | 8
CCCN1C(=O)/C(=N\OCC(=O)NCC(F)(F)F)c2ccccc21 | -10
Cc1ccc(C)n1-c1nn(S(=O)(=O)c2cccc3cccnc23)c2cccc(F)c12 | 15
O=C(CN1CCC(n2nnc3cc(C(F)(F)F)ccc32)CC1)NNC(=O)c1ccco1 | 17
Cc1ccc(-n2c(CCc3nc4ccccc4[nH]3)n[nH]c2=S)cc1 | -11
COc1ccc(NCN2C(=O)C3C4C=CC(C4)C3C2=O)cc1 (stereo unspecified) | 26
O=C(N/N=C\c1ccc(-c2ccc([N+](=O)[O-])cc2)o1)C1COc2ccccc2O1 (stereo unspecified) | 23
CC(/C=C1\SC(=S)N(NS(=O)(=O)c2ccccc2)C1=O)=C\c1ccccc1 | 11
COc1ccc(NCc2nnc(SCC(=O)Nc3nc(-c4ccccc4)cs3)n2-c2ccccc2)cc1 | 7
O=C(CCCCCNc1nc(=S)[nH]c2ccccc12)NCCc1ccc(Cl)cc1 | 7
O=C(O)CCCCCN=Cc1c(O)c2ccccc2oc1=O | -5
C=CC(COCc1ccccc1)N(Cc1ccccc1)S(=O)(=O)c1ccccc1Br (stereo unspecified) | 9
Cc1ccccc1-c1ncc(CN2CCN(C3CCCCC3)C(CCO)C2)cn1 (stereo unspecified) | 26
Cc1nc2ccc(NC(=O)COc3ccccc3C)cc2s1 | 10
CCN(CCC(=O)Nc1cc([N+](=O)[O-])ccc1OC)Cc1ccccc1 | 9
Cc1ccc(C)c(NC(=O)Cc2csc(-c3ccccc3)n2)c1 | 16
Cc1cc(NC(=O)c2cccc(Oc3ccccc3)c2)n[nH]1 | 15

Some of the entries so far, field by field.
molecule: COC(=O)c1ccc2nc(C)cc(Nc3ccc(N(C)C)cc3)c2c1
- Biofilm kill mix = 15

molecule: CCN(CCC(=O)Nc1cc([N+](=O)[O-])ccc1OC)Cc1ccccc1
- Biofilm kill mix = 9

The list goes on:
Molecule | Biofilm kill mix
O=C(O)c1cn(-c2ccc(F)cc2)c(=O)c2ccccc12 | 8
Cc1ccc(OCC(O)CN2CCN(Cc3ccc4c(c3)OCO4)CC2)cc1C (stereo unspecified) | 12
Cc1ccc(S(=O)(=O)Nc2ccc3c(c2)OCCO3)cc1 | 14
O=C(CCSCc1ccccc1F)NCc1cccs1 | 11
O=C(O)/C=C/c1cn(-c2ccccc2)nc1-c1cccs1 | 13
COc1ccc(NC2c3ccccc3C(=O)N2Cc2ccccc2Cl)cc1OC (stereo unspecified) | 27
Cc1c(Cl)c([N+](=O)[O-])nn1CCCC(=O)N(Cc1ccccc1)Cc1ccccc1 | 21
COc1nc(N(CC(N)=O)S(=O)(=O)c2ccccc2)nc(C)c1Cl | 9
O=C(NC12CC3CC(CC(C3)C1)C2)c1cc([N+](=O)[O-])ccc1N1CCOCC1 | 3
Cc1ccc(C(=O)N2c3ccccc3NC(=O)C2C)cc1 (stereo unspecified) | 20
O=C1OC(c2ccccc2)=N/C1=C\C=C\c1ccco1 | 15
COc1ccccc1C(CC(=O)Nc1ccc(C)c(C)c1)c1ccc(OC(C)C)cc1 (stereo unspecified) | 8
Cc1[nH]n(-c2ccccc2)c(=O)c1N=Nc1ccccc1O | 25
COc1ccc(C(CC(=O)O)NC(=O)OC(C)(C)C)cc1 (stereo unspecified) | 17
COC(=O)c1ccc(CSc2nnc(NC(=O)C3CC(=O)N(Cc4ccc(C)cc4)C3)s2)cc1 (stereo unspecified) | 19
Cn1c(-c2ccc(F)cc2)cnc1SCC(=O)Nc1ccccc1 | -1
Cc1cc(C)n2nc(SCCCC(=O)c3ccccc3)nc2n1 | 13
COc1cccc(CN2CCN(C(=O)CCc3nnc(C4CCCCC4)o3)CC2=O)c1 | -3
CN(C)c1cc(-c2ccc(F)cc2)oc(=O)c1Cl | 17
Cc1nn(C2CCS(=O)(=O)C2)c(Cl)c1/C=C/C(=O)OCC(=O)c1c[nH]c2ccccc12 (stereo unspecified) | 6
O=C(C1CCCO1)N1CCN(C(=S)Nc2ccc(Cl)cc2Cl)CC1 (stereo unspecified) | 12
CC(=O)Nc1ccc(NC(=O)Nc2cc(C)cc(C)c2)cc1 | 17
CCOc1ccc(S(=O)(=O)N(C)c2ccc(OCC(=O)Nc3nc4ccccc4s3)cc2)cc1 | 15
O=C(/C(=C/c1ccccc1Cl)c1ccccc1)N1CCOCC1 | 17
CCOC(=O)c1cc2cc([N+](=O)[O-])cc(OC)c2oc1=O | 17
O=C(c1ccccc1)N(CCO)Cc1cc2cc3c(cc2[nH]c1=O)OCCO3 | 6
COc1ccccc1/C=C/C=N/NC(=O)c1cc(-c2ccco2)[nH]n1 | 17
COc1ccccc1NC(=O)Cn1c(CCC(=O)O)ccc1-c1ccccc1 | 30
Cc1cc(NS(=O)(=O)c2ccc(NC(=S)NC(=O)c3ccc(F)cc3Cl)cc2)no1 | 15
Cc1ccc(C)c(NC(=O)c2ccccc2C(=O)c2ccccc2)c1 | 10
CCOc1cc(C(=O)OCC(=O)NC(C)c2ccccc2)ccc1OCC(=O)N1CCOCC1 (stereo unspecified) | 12
O=C(NCc1nc2ccccc2[nH]1)C1=C[C@H](c2ccc(C(F)(F)F)cc2)C[C@H](OCc2ccc(CO)cc2)O1 | 17
Cn1nnc(NC(=O)c2ccc([N+](=O)[O-])cc2Cl)n1 | 20
Cc1nccn1CCCN1C(=O)OC2(CCCCC2)C1(C)O (stereo unspecified) | 14
CC(C)c1ccc(NC(=O)COC(=O)COc2ccccc2)cc1 | 17
CC(C)c1cc(CNC(=O)CC2C(=O)NCCN2CC2CCCCC2)on1 (stereo unspecified) | 13
O=C(c1ccccc1)N1CCN(S(=O)(=O)c2cccc(NS(=O)(=O)c3ccccc3)c2)CC1 | 16
O=C1/C(=C/c2cccs2)CCC1C1CCCC1 (stereo unspecified) | 20
CCc1ccc(-c2cc(C(=O)N/N=C/c3ccco3)[nH]n2)cc1 | 14
C=CCn1c(SCC2CCCCO2)nc2sc(CC)cc2c1=O (stereo unspecified) | 7
CCOC(=O)N1CCC(N2Cc3cccc(C(=O)NCc4ccc(OC)cc4)c3C2=O)CC1 | 15
S=C(NNc1nc(Nc2ccccc2)nc(N2CCCCC2)n1)NC1CCCCC1 | 13
COc1ccc(CCNC(=O)Cn2c(=O)n(CC3CCCO3)c(=O)c3cc(OC)c(OC)cc32)cc1OC (stereo unspecified) | 9
CC1(C)CC(=O)c2cnc(N3CCc4ccccc43)nc2C1 | 22
COc1ccc(CC(=O)Nc2ccc(C(=O)O)cc2NC(=O)Cc2ccc(OC)cc2)cc1 | 9
CC(C)(C)c1cc(OC(=O)c2ccncc2)ccc1O | 13
O=C(Nc1ccccc1C(F)(F)F)c1ccccn1 | 9
Cc1ccc(C(=O)NCCc2nnc3ccc(SCC(=O)Nc4ccc(C)cc4C)nn23)cc1 | 13
O=C(CCCSc1nc2ccccc2s1)NCc1ccc2c(c1)OCO2 | 9
COc1cc(/C=N/NC(=O)c2ccc(CSc3nncn3C)cc2)ccc1OCC(=O)N1CC(C)OC(C)C1 (stereo unspecified) | 13
CCc1ccc(N2C(=O)CN(CC(=O)OC)C2=S)cc1 | -13
Cc1ccn2cc(CCNC(=O)COc3ccccc3)nc2c1 | 24
CCOC(=O)C1(C)C=C(Nc2ccccc2)C(=O)N1c1ccccc1 (stereo unspecified) | 13
O=C(CNC(=O)C1COc2ccccc2O1)N/N=C\c1cccc(O)c1 (stereo unspecified) | 19
COC(=O)c1ccccc1-c1ccc(/C=N/NC(N)=O)o1 | 27
O=[N+]([O-])c1ccc(N/N=C2\CC3CC=CC23)cc1 (stereo unspecified) | 29
S=C(Nc1ccc(Cl)cc1)N(CCCN1CCOCC1)Cc1ccco1 | 10
Cc1cc(C)nc(Nc2n[nH]c(Cc3ccccc3)n2)n1 | 7
Cc1ccc(C)c(OCCn2cc(C(=O)O)c3ccccc32)c1 | 8
Cc1ccc(S(=O)(=O)CC(=O)Nc2ccc(F)c(F)c2F)cc1 | 17

No new results follow: an excerpt of the list.
Molecule | Biofilm kill mix
CCOc1cc(C(=O)OCC(=O)NC(C)c2ccccc2)ccc1OCC(=O)N1CCOCC1 (stereo unspecified) | 12
O=C(NCc1nc2ccccc2[nH]1)C1=C[C@H](c2ccc(C(F)(F)F)cc2)C[C@H](OCc2ccc(CO)cc2)O1 | 17
Cn1nnc(NC(=O)c2ccc([N+](=O)[O-])cc2Cl)n1 | 20

The results go on.
Molecule | Biofilm kill mix
CC1=C(C(=O)OCC2CCCO2)C(c2coc3ccccc3c2=O)C2=C(CC(C)(C)CC2=O)N1 (stereo unspecified) | 8
O=C(CNC(=O)c1ccccc1Cl)N/N=C/C=C/c1ccccc1 | 9
Cc1ccccc1CNC(=O)C(=O)Nc1nccs1 | 12
O=C(NCCCCc1ccccc1)c1ccccc1Cl | 6
BrCCOCCOc1ccc2ccccc2c1 | 10
CC(=O)Nc1ccc(OCC(=O)NCc2ccc3c(c2)OCO3)cc1 | 8
CC(=O)Nc1ccc(Br)cc1C(=O)C(=O)O | 19
Nc1ccc2nc3c(c(Cl)c2c1)CCCC3 | 14
CC1CCc2sc(C(=O)N=Nc3c(O)[nH]c4ccccc34)cc2C1 (stereo unspecified) | 12
CCN(c1ccccc1)S(=O)(=O)c1ccc(OC)c(NS(=O)(=O)c2cccs2)c1 | 12
COC(=O)CSc1nc2ccc(N)cc2s1 | 1
Cc1ccc(C(=O)NCC(=O)OCC(=O)NC2CCCC(C)C2C)s1 (stereo unspecified) | 16
O=C(CCCCn1c(=O)[nH]c2ccsc2c1=O)NCCc1ccccc1 | 4
OC(CNCc1ccccc1)Cn1ccc2ccccc21 (stereo unspecified) | 13
O=C1c2ccccc2C(=O)N1CCCc1c[nH]c2ccccc12 | 9
CC1CCCCN1C(=O)c1cccc(NC(=O)c2ccccc2)c1 (stereo unspecified) | 6
O=C(COC(=O)c1ccc(O)cc1)Nc1cccc(S(=O)(=O)N2CCCCC2)c1 | 4
COc1ccccc1/C=N/NC(=O)c1nnn(-c2nonc2N)c1CSC1=NCCS1 | 12
Cc1ccc(C)c(N2N=C(C(=O)Nc3ccc(S(=O)(=O)N4CCCC4)cc3)CCC2=O)c1 | 15
Cc1ccc(C(=O)N/C(=C\c2ccccc2)C(=O)NCc2cccnc2)cc1 | 9
NS(=O)(=O)c1ccc(NC(=S)NC(=O)c2ccc3c(c2)OCO3)cc1 | 11
CN1CCN(S(=O)(=O)c2ccc(NC(=O)COc3ccccc3)cc2)CC1 | 21
O=C(NCc1ccc2c(c1)OCO2)C1CCCN1S(=O)(=O)c1ccc(F)cc1 (stereo unspecified) | 14
COC(=O)CNC(=O)CSc1nnc(C)c(=O)[nH]1 | 2
COc1ccc(-n2c(=S)[nH]c3cc(C(=O)O)ccc3c2=O)cc1 | 9
CC(=O)N(C)c1ccc(N=Nc2c(C)[nH]n(C(N)=S)c2=O)cc1 | 2
Cc1cn(-c2cc(C(=O)Nc3ccc(C)c(NC(=O)C(=O)c4c[nH]c5ccccc45)c3)cc(C(F)(F)F)c2)cn1 | 12
COc1ccc(C[C@H]2c3cc(O)c(OC)cc3CC[N+]2(C)[O-])cc1O (stereo partly specified) | 17
CCOC(=O)C1=NNC2(c3ccc(C)cc3)C(=O)N(c3ccc(Cl)cc3)C(=O)C12 (stereo unspecified) | 15
COc1ccc(C(C)=O)cc1CSc1nc(C)cc(C)n1 | 12
COc1cccc(CNCCO)c1OCc1ccccc1 | 7
CC(C)OC(=O)c1cc2c(ccn2C)n1CC(=O)N(Cc1ccccc1)c1ccc(F)cc1 | 12

Shown as labelled records: 3 of the compounds above
> Cn1c(-c2ccc(F)cc2)cnc1SCC(=O)Nc1ccccc1
  Biofilm kill mix: -1
> Cc1cc(C)n2nc(SCCCC(=O)c3ccccc3)nc2n1
  Biofilm kill mix: 13
> COc1cccc(CN2CCN(C(=O)CCc3nnc(C4CCCCC4)o3)CC2=O)c1
  Biofilm kill mix: -3
